High-throughput results deposited in PubChem by National Center for Advancing Translational Sciences (NCATS).
gsp antagonist = qHTS for Antagonists of gsp, the Etiologic Mutation Responsible for Fibrous Dysplasia/McCune-Albright Syndrome: qHTS | Potency, µM (highest dose often 76.9 µM), for inactives: at the highest dose activity change, negative = inhibition, most hits filed as inhibitors | gsp-mutant cells, cAMP HTRF, 30 min; control for the full effect not named in the record | 340,000 compounds, 0.4% hits; active = falling curve of any shape with a large fitted effect; inconclusive = falling curve, mostly with a smaller effect; inactive = flat or rising curve; cell line not stated here;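 also: intracellular cAMP measured with PDE inhibitor Ro 20-1724 present during compound exposure; potency is read from the fitted curve at half-maximal effect; % is scaled to controls: 0 for no effect and ±100 for the full control effect; nearly all actives have a fitted effect of over 65% in size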
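Measurement of cellular cAMP by homogeneous time-resolved fluorescence following a 30 min compound exposure at 37C. The PDE inhibitor […] was present throughout; the assay buffer was DPBS with 0.05% BSA and 0.005% Tween 20.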
D2 agonist = Beta-Arrestin HTS for Positive Allosteric Modulators of the Human D2 Dopamine Receptor: Agonists. D(2) dopamine receptor (Homo sapiens), P14416. DiscoveRx PathHunter D2 beta-arrestin, luminescence, 90 min; 100% = 57 uM dopamine signal. activation, % (test concentration not listed). 360,000 compounds, 0.084% hits. AID 624465, 2012; in the data active = activation above about 40%; inconclusive = about 15% to 40%; inactive = below about 15%; also: compound concentration not given in the record; the text of the record calls up to 30% inactive
Target sequence (P14416 whole entry, looked up): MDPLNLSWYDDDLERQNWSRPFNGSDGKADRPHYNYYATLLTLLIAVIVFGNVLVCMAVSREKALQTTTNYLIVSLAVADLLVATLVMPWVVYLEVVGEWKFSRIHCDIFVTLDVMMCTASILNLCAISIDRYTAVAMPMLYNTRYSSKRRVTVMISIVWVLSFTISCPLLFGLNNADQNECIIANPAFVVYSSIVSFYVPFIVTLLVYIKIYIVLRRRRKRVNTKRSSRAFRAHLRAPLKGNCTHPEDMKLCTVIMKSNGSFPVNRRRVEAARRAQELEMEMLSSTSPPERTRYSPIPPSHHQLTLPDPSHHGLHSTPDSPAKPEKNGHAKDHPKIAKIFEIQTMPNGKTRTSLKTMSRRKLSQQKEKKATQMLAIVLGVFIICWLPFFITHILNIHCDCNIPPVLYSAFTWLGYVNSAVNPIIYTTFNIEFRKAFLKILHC
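Agonist mode: compounds alone added to overnight-plated D2 PathHunter cells for 90 min at 37 C, with 57 uM final dopamine (EC100) defining full response. Beta-arrestin recruitment detected by chemiluminescent reagent, read after 1 h at ambient temperature.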
Six1-Eya2 inh = qHTS Assay for Inhibitors of the Six1/Eya2 Interaction. Homeobox protein SIX1 (Homo sapiens) + Protein phosphatase EYA2 (Homo sapiens), …. AlphaScreen GST-Six1/His-Eya2 binding, biochemical; stronger effect = lower value; control for the full effect not named in the record. activity change, % (test concentration not listed). 360,000 compounds, 0.56% hits; in the data active = activity change below about -65%; inconclusive = about -30% to -65%; inactive = above about -30%; also: % is scaled to controls: 0 for no effect and ±100 for the full control effect
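Compounds are tested against tagged Six1 and Eya2 proteins bridged by glutathione donor and nickel acceptor beads; after a one-hour incubation at 37 °C without light, AlphaScreen emission is recorded.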
gsp ag = qHTS for Agonist of gsp, the Etiologic Mutation Responsible for Fibrous Dysplasia/McCune-Albright Syndrome: qHTS. gsp mutant cells, cAMP HTRF, 30 min; control for the full effect not named in the record. Potency, µM (highest dose often 76.9 µM), for inactives: top-dose activation (cAMP increase), actives largely listed as activators. 340,000 compounds, 0.13% hits; active = well fitted activation curve with a large enough effect; inconclusive = small, poorly fitted or top-dose-only effect, or another doubt; inactive = no such curve, though single readings can be large or run the other way; cell line not stated here;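 also: phosphodiesterase inhibitor Ro 20-1724 added with compounds to block cAMP breakdown; potency is read from the fitted curve at half-maximal effect; nearly all actives have a fitted effect of over 60% in size; about a fifth of the inactives were tested at one dose only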
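Cells in DMEM/10% FBS with G418 were pretreated with compounds in DMSO plus […] (300 uM stock) for 30 min at 37C. cAMP was measured by HTRF (cAMP-d2 plus anti-cAMP antibody-K) after 30 min at room temperature.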
D2 PAM = Beta-Arrestin HTS for Positive Allosteric Modulators of the Human D2 Dopamine Receptor: Potentiators; DiscoveRx D2 beta-arrestin cells, luminescence, 90 min; 100% = 57 uM dopamine signal; AID 624464, 2012; potentiation, % (test concentration not listed); 360,000 compounds, 0.23% hits; D(2) dopamine receptor (Homo sapiens), P14416; active = potentiation of 50% or more; inconclusive = 30% to 50%; inactive = 30% or less;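 also: compound concentration not given in the record; tested on top of an EC20 dose of dopamine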
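PathHunter D2 cells, attached overnight at 37 deg C, received compound in DMSO plus dopamine at EC20 (50 nM final) for 90 min at 37 deg C. Beta-arrestin recruitment was read as luminescence after 1 h with detection reagent at ambient temperature.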
CtBP-E1A blk = qHTS Assay for Inhibitors of the CtBP/E1A Interaction; CtBP / adenovirus E1A interaction (AlphaScreen); 340,000 compounds, 0.49% hits; activity change, % (no concentration beside the values); AlphaScreen GST-E1A/His-CtBP binding, 1536-well; stronger effect = lower value; control for the full effect not named in the record; in the data active means activity change below about -65%; inconclusive means about -30% to -65%; inactive means above about -30%; also: % is scaled to controls: 0 for no effect and ±100 for the full control effect
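Protein mix (5X: 125 nM each GST-E1A, His-CtBP) was incubated with pinned compound 2 h at 37 deg C in dark, in 50 mM Tris pH 8.0 buffer with 300 mM NaCl. Glutathione donor and nickel acceptor beads followed; AlphaScreen signal read after 1 h.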
Numbers without * were called inactive; ? = inconclusive; nt = no result given; [ ] = remark or other dose.

SMILES | gsp antagonist | D2 agonist | Six1-Eya2 inh | gsp ag | D2 PAM | CtBP-E1A blk
O=C(Cc1n[nH]c(=O)[nH]c1=O)N/N=C/c1ccccc1O | 5% | -1.9 | ? | -4% | -15 | 7
COc1cc(C=O)ccc1OC(=O)Nc1ccccc1 | 4% | -4.8 | 1 | -7%[15.4 µM] | -11 | -2
CC1(C)C(=O)OC(/C=C/c2cccc([N+](=O)[O-])c2)C(C)(C)C1=O (configuration not stated) | -12% | -2.0 | -2 | 4% | -17 | nt
COc1ccccc1CCNC(=O)c1cc(-c2ccncc2)nc2ccc(Br)cc12 | -8% | -1.9 | 0 | -8%[15.4 µM] | -2 | 0
COc1ccc(C(=O)NNC(=O)c2ccc(S(=O)(=O)N3CCCCC3)cc2)cc1 | 10% | 4.3 | -1 | -5%[15.4 µM] | 8 | -6
COC(=O)C(CC(=O)c1ccc(Br)cc1)n1nc(C)cc1C (configuration not stated) | -6% | 3.6 | 8 | -20% | -4 | 12
Cc1cc(C)n(C(=O)c2ccc(Cl)c(F)c2F)n1 | 3% | -2.3 | 7 | -5%[15.4 µM] | 4 | 17
C[C@H]1[C@H](C)CC[C@]2(C)CC[C@]3(C)C(=CC(=O)C4[C@@]5(C)CC[C@H](O)C(C)(C)C5CC[C@]43C)[C@H]12 (some centres not stated) | -24% | -4.0 | -3 | nt | 0 | 0
CN(Cc1cccnc1)C(=O)c1cc(S(=O)(=O)Nc2ccccc2F)ccc1Cl | -17% | -1.1 | 1 | -9% | -30 | -4
O=C1/C(=C\c2ccc(C(F)(F)F)cc2)CSc2sccc21 | -7% | 2.6 | 2 | -19% | 7 | nt
CC(C)(C)C(=O)O/N=C(\N)c1ccc(-c2csnn2)cc1 | -23% | -0.9 | 22 | 16%[15.4 µM] | -5 | 12
COc1ccc(-c2[nH]ncc2CNCCc2ncccc2C)cc1F | 1% | -0.9 | 6 | 6%[15.4 µM] | -15 | -1
O=C(CN1CCN(c2ccccc2O)CC1)Nc1ccc([N+](=O)[O-])cc1Br | ? | -1.2 | -14 | 15%[15.4 µM] | -18 | 2
CC(NC(=O)c1cccc(S(=O)(=O)N(C)c2ccccc2)c1)c1cccnc1 (configuration not stated) | -9% | 3.1 | 1 | -4% | -2 | -13
CCOC(=O)C1C(=O)CC(C)(O)C(C(=O)OCC)C1c1ccc(F)cc1 (configuration not stated) | -1% | -1.8 | 2 | 18% | -10 | -12
COc1ccccc1C(=O)NCC1(c2ccccc2)CCCC1 | ? | 1.0 | 8 | 26% | -13 | 1
CCOc1c2ccccc2nn1CCO | -6% | -3.3 | -2 | nt | -13 | -23
CCOc1cc(NC(=S)Nc2ccccc2OC)c(OCC)cc1NC(=O)c1ccccc1C | -26% | 2.1 | -30 | 8% | -13 | ?
COc1ccc(NC(=O)CCn2c(=S)[nH]c3ccccc3c2=O)cc1Cl | nt | -2.1 | -2 | ? | -7 | -2
CCc1c(C)c2cc(Cl)c(O)c(CN(C)C)c2oc1=O | 4% | 0.4 | 4 | 35% | -8 | 0
COc1ccc(C(=O)CC(=O)c2ccccc2O)cc1 | -5% | 9.7 | -6 | -32%[inhibitor] | -5 | -5
CCOc1ccc(-c2cnc3n2CCCCC3)cc1 | 10% | -0.6 | -1 | -11%[15.4 µM] | -6 | 2
CC(C)(C)c1cc(C(=O)N/N=C/c2ccco2)n[nH]1 | 13% | 3.2 | 3 | 10%[15.4 µM] | -4 | -1
Cc1nn(Cc2ccc(F)cc2)c(C)c1NC(=O)c1cnn2cccnc12 | 5% | 1.6 | -1 | 9% | -11 | 7
COc1ccc(N2CCN(S(=O)(=O)c3c(C)[nH]c(C)c3C(=O)N3CCCC3)CC2)cc1 | 12% | -4.0 | 2 | -14% | -4 | -9
COc1ccc(-c2cn(Cc3ccc(C(N)=O)cc3)c(-c3ccc(Cl)nc3)n2)cc1 | -9% | -3.3 | -8 | -29% | -9 | nt
COc1cc(OC)cc(-c2c(C#Cc3ccsc3)c3cc(-c4cc(OC)c(OC)c(OC)c4)ccc3n2C)c1 | 3% | -2.2 | 0 | -25% | -9 | -2
CSc1nsc(SCc2cnc(C)nc2N)n1 | -1% | -2.0 | 4 | 0% | -6 | 1
O=C(O)c1ccccc1-c1ccccc1C(=O)Nc1ccc2c(c1)C(=O)c1ccccc1-2 | -6% | -4.0 | ? | -70%[inhibitor] | -5 | -27
CC1=CCC2C(=O)N(c3ccc(C(=O)Nc4ccccc4Cl)cc3)C(=O)C2C1 (configuration not stated) | -14% | 0.9 | -4 | 11% | -10 | -1
COc1ccc(C2CC(=O)C3=C(C2)Nc2ncnn2C3c2ccccc2C)c(OC)c1 (configuration not stated) | -20% | -7.2 | 0 | -32%[inhibitor] | -22 | -3
Cc1cc(C)n(-c2ccc(C(=O)N3CCN(S(=O)(=O)c4cccc(Br)c4)CC3)cc2)n1 | ? | -1.8 | -2 | 0% | -4 | -15
O=C1c2ccccc2C(O)(Cc2ccccc2)N1c1ccc2c(c1)OCO2 (configuration not stated) | -5% | 2.5 | -3 | -27% | -9 | -6
CN(C)C(=S)Nc1ccc(Br)cc1Cl | 3% | 3.4 | 4 | 28% | 1 | 0
COc1ccc(N(C(=O)c2ccncc2)S(=O)(=O)c2ccccc2)cc1 | 1% | -4.3 | 2 | ? | 7 | -4
O=C(CSc1ncn(-c2ccccc2)n1)N1CCc2ccccc21 | -7% | -5.8 | -5 | -5% | -25 | -1
CCOc1ccc(CCNC(=O)COC(=O)c2cccc(S(=O)(=O)N(C)C)c2)cc1OCC | -15% | -2.1 | -9 | -2% | -6 | nt
CN(Cc1ccon1)C(=O)CC1C(=O)NCCN1Cc1cccc(F)c1F (configuration not stated) | 1% | -7.2 | 4 | 28% | 1 | -1
COc1ccc(NC(=O)CSc2nc3c(c(-c4cccs4)c2C#N)CN(C)CC3)cc1OC | 4% | 1.8 | ? | -8% | -2 | -4
COc1ccc(CCC(=O)OCC(=O)NC(=O)c2ccc(Cl)cc2)cc1 | -8% | 1.5 | -1 | -1% | -3 | 11
COc1ccc2c(c1)C(C)=CC(C)(C)N2C(=O)CSc1nnc(-c2ccc(C)cc2)o1 | -5% | -0.6 | -2 | -38%[inhibitor] | -7 | 3
CN1C[C@@H]2[C@@H]3C(=O)N(Cc4ccccc4)C(=O)[C@@H]3[C@](C)(C1=O)N2C(=O)c1ccc(Br)cc1 | 11% | -0.8 | 6 | nt | -10 | 5
CCc1nc2ccc(C(=O)NCCCN3CCCC3=O)cn2c1N(CC)Cc1cccc(Br)c1 | nt | -1.6 | -4 | nt | -13 | -5
COc1ccc(Cc2c(-c3cccc(Cl)c3)nc3ccc(Cl)cn23)c(C)c1 | nt | -5.5 | -6 | nt | -7 | 1
O=C(CN1CCC(NC(=O)C2CC2)CC1)Nc1cccc(F)c1 | 3% | -3.3 | 7 | 16%[15.4 µM] | -19 | 4
CCNC(=O)CSc1nnc(-c2cccc(S(=O)(=O)N3CCOCC3)c2)o1 | 10% | -2.3 | 7 | 12%[15.4 µM] | 1 | -7
Cc1ccccc1C1=N/C(=C/c2cccs2)C(=O)O1 | -6% | -11 | -3 | -8% | -14 | nt
COc1ccc(N(C)C(=O)c2oc(=O)c3ccccc3c2-c2ccccc2)c(OC)c1 | -27% | -0.8 | -4 | 2% | -8 | 1

Given as a markdown table: entries from further up.
| Molecule | gsp antagonist | D2 agonist | Six1-Eya2 inh | gsp ag | D2 PAM | CtBP-E1A blk |
| --- | --- | --- | --- | --- | --- | --- |
| CN1C[C@@H]2[C@@H]3C(=O)N(Cc4ccccc4)C(=O)[C@@H]3[C@](C)(C1=O)N2C(=O)c1ccc(Br)cc1 | 11% | -0.8 | 6 | nt | -10 | 5 |
| CCc1nc2ccc(C(=O)NCCCN3CCCC3=O)cn2c1N(CC)Cc1cccc(Br)c1 | nt | -1.6 | -4 | nt | -13 | -5 |

Later entries.
SMILES | gsp antagonist | D2 agonist | Six1-Eya2 inh | gsp ag | D2 PAM | CtBP-E1A blk
COC(=O)C1CCN(C(=O)c2ccccc2NC(C)=O)CC1 | 4% | -2.4 | 3 | 0% | -7 | 5
Nc1ncnc2c1ncn2[C@@H]1O[C@H](CNCc2ccc(OCc3ccccc3)cc2)[C@@H](O)[C@H]1O | 5% | -4.7 | 1 | nt | nt | -7
Cc1ccc(C)c(S(=O)(=O)N2CCN(C(=O)c3n[nH]c(=O)c4ccccc34)CC2)c1 | -5% | -5.0 | -5 | ? | -4 | nt
Cc1cc(C(=O)Nc2ccc(Br)cc2)cs1 | 5% | -4.9 | 8 | ? | 1 | 12
C=CCNC(=O)CSc1nnc(-c2cccc(S(=O)(=O)N3CCOCC3)c2)o1 | nt | -1.7 | -7 | -1% | -5 | 2
O=C(NCc1ccncc1)c1cccc(NS(=O)(=O)c2ccc(F)c(F)c2)c1 | 9% | 0.1 | -2 | 14% | -20 | 2
O=[N+]([O-])c1cc(C(F)(F)F)ccc1N1CCCNCC1 | 10% | -4.9 | -1 | 23%[15.4 µM] | -3 | 1
O=C(c1ccccc1[N+](=O)[O-])N1CCN(Cc2ccc3c(c2)OCO3)CC1 | -3% | -0.8 | 7 | 28% | -7 | 12
CCCn1c(C)cc(/C=C(\C#N)C(=O)OCC(=O)N(C)c2c(N)n(Cc3ccccc3)c(=O)[nH]c2=O)c1C | 1% | -2.9 | -7 | ? | -21 | 6
O=C(CN1C(=O)c2cccc3cccc1c23)NC1CCCC1 | 4% | -2.6 | 8 | 28% | -4 | -11
COc1ccccc1N1CCN(C(=O)c2cc3c(=O)n4cccc(C)c4nc3s2)CC1 | 5% | -0.6 | -8 | 34% | -7 | -24
COc1ccc(OC)c2sc(NC(=O)C3=COCCO3)nc12 | -2% | -1.8 | -2 | -35%[inhibitor] | -8 | -8
CC(/C=N/NC(=O)c1cccc(F)c1)=C\c1ccccc1 | -5% | 3.2 | 1 | ? | -18 | 2
COc1ccc(-c2ccc(CCC(=O)O)o2)cc1 | nt | -3.5 | -3 | -9%[15.4 µM] | 7 | 17
CC(C)(C)SCCNC(=O)CN(c1ccc(F)c(Cl)c1)S(C)(=O)=O | 11% | -0.4 | 2 | ? | 0 | 7
O=C(CSc1ccccn1)N1CCN(c2ccc(Cl)cc2)CC1 | 6% | -3.7 | -3 | -6% | -6 | 3
C=CCNc1nc(NCc2ccc(N(C)C)cc2)c2sc(-c3ccccc3)cc2n1 | nt | -4.5 | -73* | nt | -17 | -77*
CCC1CCC(c2nnc(-c3ccc([N+](=O)[O-])cc3)o2)CC1 (configuration not stated) | 0% | 0.1 | -19 | 17% | -11 | -22
